# Vaccinia pol inh: vaccinia E9 polymerase processive synthesis inhibition | normalized absorbance, % (test concentration not listed) | in vitro processive DNA synthesis, absorbance read-out; hits give low values; some inactives read as strong as hits | 46,000 tested, 0.94% active;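 active = replicate mean up to 90% and picked by the depositor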;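 note: 100% = median of the test wells of a plate; 100 nL library stock went into each well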
# An asterisk follows results filed as active. These rows are one share of the data; the hit share may differ from the screen's.
SMILES,Vaccinia pol inh
O=S(=O)(NCCCN1CCOCC1)c1cc(Br)c(Br)s1,117
CN(CC(=O)N1CCN(c2ccccc2)CC1)S(=O)(=O)c1ccccc1,96
O=C(c1ccccc1)c1ccccc1C(=O)c1ccccc1,96
CCOc1ccc(C2C(C(=O)OC)=CN(CCOC)C=C2C(=O)OC)cc1,92
CC(C)(C)NC(=O)CSc1nnnn1C(C)(C)C,99
Cc1ccc(-n2ncc3c(=O)n(-c4ccc(F)c(Cl)c4)c(-c4ccco4)nc32)cc1,105
CCCNC(=O)c1cc2oc3ccccc3c2n1C,102
Cn1c(/C=C/C(=O)O)nc2ccccc21,100
CC(=O)N(Nc1ccccc1)c1ccccc1,100
O=C(CSc1cccc[n+]1[O-])NC1CCCc2ccccc21 (centres undefined),98
O=C(CSc1ccccc1Cl)c1cccs1,104
Cc1ccc(Nc2nc(C)cc(C)c2C(N)=O)cc1,100

# Exported with tabs: entries from further up.
SMILES	Vaccinia pol inh
Cc1ccc(-n2ncc3c(=O)n(-c4ccc(F)c(Cl)c4)c(-c4ccco4)nc32)cc1	105
CC(=O)N(Nc1ccccc1)c1ccccc1	100
CCCNC(=O)c1cc2oc3ccccc3c2n1C	102
O=S(=O)(NCCCN1CCOCC1)c1cc(Br)c(Br)s1	117
CCOc1ccc(C2C(C(=O)OC)=CN(CCOC)C=C2C(=O)OC)cc1	92
Cn1c(/C=C/C(=O)O)nc2ccccc21	100
O=C(CSc1cccc[n+]1[O-])NC1CCCc2ccccc21 (centres undefined)	98

# (listing goes on)
SMILES,Vaccinia pol inh
Cc1oc2cc(O)cc(O)c2c(=O)c1-c1ccc2c(c1)OCCCO2,102
CCN1C(=O)/C(=C2\SC(=S)N(c3cccc(Cl)c3)C2=O)c2ccccc21,99
CC(=O)Nc1ccc(NC(=O)c2c(F)c(F)c(F)c(F)c2F)cc1,94
CCCC(C(=O)O)N1C(=O)/C(=C/c2ccc(C)cc2)SC1=S (centres undefined),96
Cc1cccc(C)c1-n1c(C2CC3CCC2O3)n[nH]c1=S (centres undefined),102
O=C(CSc1nc2ncccc2[nH]1)NC1CCCC1,100
Nc1ccc2oc(-c3ccccc3)nc2c1,96
Cc1ccc2c(c1)OC(=O)CC2c1ccccc1 (centres undefined),99
O=C1CS/C(=N/c2ccccn2)N1C1CCCCC1,100
Cc1cccc(Oc2coc3cc(OC(=O)c4ccc(F)cc4)ccc3c2=O)c1,100
O=S(=O)(NC(c1ccccc1)c1ccccc1)c1ccccc1,99
O=C(COc1ncnc2ccccc12)Nc1ccc(Cl)cc1F,99
Cc1ccc(NC(=O)c2c3c(nc4ccccc24)CCCC3)cc1,102
CC1(C)Cc2cccc(OCc3nc4ccccc4[nH]3)c2O1,103
Cc1sc2nc(SCC(=O)c3ccc(O)c(O)c3)[nH]c(=O)c2c1C,100
CC1(C)CC(=O)c2cnc(NC3OC(=O)c4ccccc43)nc2C1 (centres undefined),101
Cc1[nH]n(-c2cccc(Cl)c2)c(=O)c1N=O,67*
O=c1[nH]cc(NCc2ccccc2)c(=O)[nH]1,106
CCOC(=O)C1C(=O)C=C(Nc2sc3c(c2C#N)CCCC3)CC1c1cccc(OC)c1 (centres undefined),100
Cc1cc(C)c(N=Cc2nc(-c3ccccc3)oc2O)c(C)c1,106
O=C(c1cn(Cc2ccccc2)c2ccccc12)C1CC1,94
CC(=O)Nc1ccc(NC(=O)C2CC(C)=CCC2C(=O)O)cc1 (centres undefined),97
CC(=NCCc1c(C)[nH]c2ccccc12)c1c(C)[nH]n(-c2nc3ccccc3s2)c1=O,99
CCOC(=O)c1c(N)sc2c1CCCCC2,94
O=c1c2ccccc2nc(SCc2ccc3c(c2)OCO3)n1-c1ccccc1,101
CCOC(=O)c1c(C)c(C(=O)NCc2ccccc2)c(C)n1C,101
COc1ccc(C2CC(=O)n3nc(-c4ccccc4)nc3S2)cc1OC (centres undefined),100
Cc1ccc2oc(=O)c3cnn(CC(=O)Nc4cccnc4)c3c2c1,103
CCOc1ccc(Nc2c(S(=O)(=O)c3ccccc3)cnc3ccc(OCC)cc23)cc1,103
CCOC(=O)c1c(C)c(C#N)c(NC(=O)c2ccc(Cl)cc2Cl)n1-c1ccc(C)cc1,93
N#CCc1ncc(CSc2nc3ccccc3[nH]2)s1,99
Cc1ccc(S(=O)(=O)N2CCCC2C(=O)Nc2nc3ccccc3s2)cc1 (centres undefined),94
O=C(CSC(=O)c1ccccc1)Nc1ccc2ccccc2c1,96
N#Cc1c(SCC(=O)c2ccc(F)cc2)nsc1SCC(=O)c1ccc(F)cc1,99
COc1ccc(OC)c2[nH]c(=O)c(CCNC(=O)c3ccc(F)c(F)c3)cc12,101
COc1ccc(CCC(=O)Nc2n[nH]c3nc4cc(OC)ccc4cc23)cc1,98

# Part of the list above, with bars between the fields:
SMILES | Vaccinia pol inh
CC1(C)Cc2cccc(OCc3nc4ccccc4[nH]3)c2O1 | 103
Cc1sc2nc(SCC(=O)c3ccc(O)c(O)c3)[nH]c(=O)c2c1C | 100
CC1(C)CC(=O)c2cnc(NC3OC(=O)c4ccccc43)nc2C1 (centres undefined) | 101
Cc1[nH]n(-c2cccc(Cl)c2)c(=O)c1N=O | 67*
O=c1[nH]cc(NCc2ccccc2)c(=O)[nH]1 | 106
CCOC(=O)C1C(=O)C=C(Nc2sc3c(c2C#N)CCCC3)CC1c1cccc(OC)c1 (centres undefined) | 100
Cc1cc(C)c(N=Cc2nc(-c3ccccc3)oc2O)c(C)c1 | 106
O=C(c1cn(Cc2ccccc2)c2ccccc12)C1CC1 | 94
CC(=O)Nc1ccc(NC(=O)C2CC(C)=CCC2C(=O)O)cc1 (centres undefined) | 97
CC(=NCCc1c(C)[nH]c2ccccc12)c1c(C)[nH]n(-c2nc3ccccc3s2)c1=O | 99
CCOC(=O)c1c(N)sc2c1CCCCC2 | 94
O=c1c2ccccc2nc(SCc2ccc3c(c2)OCO3)n1-c1ccccc1 | 101
CCOC(=O)c1c(C)c(C(=O)NCc2ccccc2)c(C)n1C | 101
COc1ccc(C2CC(=O)n3nc(-c4ccccc4)nc3S2)cc1OC (centres undefined) | 100

# (further entries)
SMILES,Vaccinia pol inh
CCCNS(=O)(=O)c1ccc2c(c1)CCCN2C(C)=O,94
Cc1cc(NCCN2CCCCC2)c2ccc3ccccc3c2n1,22*
O=C(COc1ccc(Cl)cc1)NCc1n[nH]c(=S)n1-c1cccc(Cl)c1,100
CC1=C(C(=O)Nc2ccc(C)cc2)C2(CCCCC2)OC1=O,105
O=S(=O)(Nc1ccc(O)c(Sc2nc3ccccc3s2)c1)c1ccccc1,100
Cc1snc(SCc2c(F)cccc2Cl)c1C#N,118
COc1ccc(-c2nnc3sc(-c4ccc(Br)o4)nn23)cc1,95
C=CCSC1=C(C#N)C(c2ccccc2)CC(=O)N1 (centres undefined),92
Cc1ccc(-c2cc(C(=O)N3CCC(C(N)=O)CC3)c3ccccc3n2)cc1,98
COc1ccc(-c2nc(SCC(=O)CSc3n[nH]c(-c4ccc(OC)cc4)n3)n[nH]2)cc1,99
Cc1ccc(Nc2nc(/N=C/N(C)C)n[nH]2)cc1C,100
CN(C(=O)c1cc2c(Cl)nc3ccccc3c2s1)c1ccccc1,106
O=C1C(c2ccc(I)cc2)=C(O)c2ccccc21,90
O=C(Oc1ccccc1)c1cn(-c2ccccc2)nc1-c1cccnc1,99
C=CCn1c(-c2ccccc2)nn(CNc2ccccc2Cl)c1=S,100
CC(/C=C/c1cccnc1)=C\C(=O)O,101
O=C(CC1OCCN(Cc2ccccc2)C1=O)Nc1ccc(Br)cc1Br (centres undefined),100
C1CCC(N=C(NC2C3CC4CC(C3)CC2C4)N2CCOCC2)CC1 (centres undefined),101
COC(=O)c1sccc1NC(=S)N1CCCC1,101
COc1ccc(Nc2ncnc3ccccc23)cc1,99
CCN(CC)S(=O)(=O)c1cccc(C(=O)Oc2cccc(-c3cnc4ccccc4n3)c2)c1,100
CSc1ccc(Cl)c(C(=O)OCC(=O)N(C)c2ccccc2)c1,100
CS(=O)(=O)N(CC(=O)N1CCc2ccccc2C1)c1ccccc1,98
CCc1ccccc1NC(=O)Cc1ccc(Br)cc1,97
Cc1cccc(C(=O)OCC(=O)NC2CCCC(C)C2C)c1 (centres undefined),100
Cc1ccc(C2C(C#N)=C(N)OC(C3CC3)=C2C#N)cc1 (centres undefined),94
CC(=O)Nc1ccc(NC(=O)COC(=O)C2CCCCC2)cc1,100
NC(CO)C12CC3CC(CC(C3)C1)C2 (centres undefined),74
COc1ccc(C2C3=C(CC(C)(C)CC3=O)N(C)C3=C2C(=O)CC(C)(C)C3)cc1,97
Cc1c(CCNS(=O)(=O)c2ccc(Br)cc2)c2ccccc2n1Cc1ccccc1,109
O=C(O)c1ccc(Cn2cccn2)o1,100
CCS(=O)(=O)n1nc(-c2ccccc2)cc1N,94
Cc1cccc(OCC(=O)Nc2c(C(=O)Nc3cccc(F)c3)oc3ccccc23)c1,103
Cc1ccc(S(=O)(=O)N(C)C(C)C(O)c2ccccc2)cc1 (centres undefined),106
Cc1ccc2nc(-c3ccccc3)cc(C(=O)Nc3ccccc3)c2c1,99
CCc1ccc(Nc2cc(C(=O)NCC(OC)OC)c3ccccc3n2)cc1,99
Cc1oc2cc(Br)c(OC(=O)c3ccco3)cc2c1C(=O)OC(C)C,100
CNC(=O)c1ccsc1NC(=O)c1cc2ccccc2cc1OC,97
